# Screening results as filed in PubChem.
# B2AR ag – agonists of human beta-2 adrenergic receptor inducing internalization; P07550; Am2.2-beta2AR cells, FAP receptor internalization, flow cytometry; reference of the scale not given here; response, % (no concentration beside the values); 0.43% of 340,000 active; AID 504454;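 active = response above a set limit, near 3 SD of response in nonfluorescent compounds, cut at about 42% in these data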;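 note: stock transfer was 100 nL into about 11 µL; a reference agonist was the positive control; negative values mostly stem from fluorescent compounds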
# HNF4A DNA FP – change in binding of human HNF4 alpha to DNA; P41235; HNF4a-FITC DNA binding, fluorescence polarization, 1 h; activity change, % at 10 µM; 0.3% of 360,000 active; in the data active = activity change above about 30%, passing the limit was not always enough;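 note: controls were the assay level and a saturating level of protein; the project sought stronger binding though the title names inhibitors; some compounds called inactive have numbers as strong as hits; positive values seem to mean higher polarization but the record does not say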
# Target sequence (P41235 whole entry, looked up): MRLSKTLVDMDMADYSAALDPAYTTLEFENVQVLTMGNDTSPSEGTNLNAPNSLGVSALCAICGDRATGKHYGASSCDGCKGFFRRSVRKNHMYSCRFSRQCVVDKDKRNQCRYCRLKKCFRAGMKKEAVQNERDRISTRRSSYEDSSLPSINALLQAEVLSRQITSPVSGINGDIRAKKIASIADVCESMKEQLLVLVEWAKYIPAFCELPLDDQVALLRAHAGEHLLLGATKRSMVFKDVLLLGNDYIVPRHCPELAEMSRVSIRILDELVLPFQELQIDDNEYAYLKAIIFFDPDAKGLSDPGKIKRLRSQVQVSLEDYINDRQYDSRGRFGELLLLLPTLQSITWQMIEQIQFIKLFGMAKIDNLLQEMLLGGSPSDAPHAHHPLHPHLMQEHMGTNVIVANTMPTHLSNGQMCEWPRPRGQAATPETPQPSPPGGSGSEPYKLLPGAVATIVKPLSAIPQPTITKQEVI
# ALR inh – human ALR oxidase inhibition via reduced H2O2. AID 485317. 3.8% of 290,000 active. inhibition, % (no concentration beside the values). purified ALR, DTT oxidation, H2O2 HRP-luminol luminescence. P55789;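 active = mean and each replicate at 75% or more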;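 note: stock transfer was 7.5 nL into about 7.5 µL; 0% = neutral wells and 100% = wells with inactivated enzyme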
# FGF22 binding – shifts melting point of recombinant human FGF22; Q9HCT0; recombinant FGF22 thermal shift, SYPRO orange fluorescence; percent of sucrose octasulfate shift, DMSO zero; calls only at 9.99 µM; 1.5% of 340,000 active; AID 651658;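 active = melting point raised past a set limit in the mean and every replicate; three in four hits are not shown here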
# Target sequence (Q9HCT0 whole entry, looked up): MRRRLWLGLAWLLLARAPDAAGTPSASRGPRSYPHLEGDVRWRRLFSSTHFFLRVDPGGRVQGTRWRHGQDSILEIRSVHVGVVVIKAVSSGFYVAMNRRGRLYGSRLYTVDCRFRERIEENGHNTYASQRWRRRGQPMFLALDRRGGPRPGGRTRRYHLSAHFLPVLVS
# Ecoli rRNA inh – inhibits bacterial ribosomal RNA function over humanized ribosomes. E. coli WT GFP vs humanized-ribosome RFP mutants, fluorescence, 24 h; stronger effect = lower value; DMSO median 0, no signal -100. GFP signal change (wild-type ribosome), % (test concentration not listed). 1.6% of 350,000 active. AID 720706;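 active = significant combined selectivity score with lowered wild-type GFP, culture density cut under 30%, mutant RFP and density less affected; inactive = any of these conditions unmet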; note: one replicate is shown; some compounds called inactive have numbers as strong as hits
# UCH37 inh – inhibitors of human deubiquitinating enzyme UCH37; Q9Y5K5; purified proteasome/UCH37, Ub-AMC cleavage fluorescence; inhibition, % (test concentration not listed); 0.33% of 330,000 active;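 active = mean of two replicates above 20%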;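 note: 0% = compound-free wells with enzyme and 100% = wells lacking proteasome; stock transfer was 100 nL into about 20 µL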
# Target sequence (Q9Y5K5 whole entry, looked up): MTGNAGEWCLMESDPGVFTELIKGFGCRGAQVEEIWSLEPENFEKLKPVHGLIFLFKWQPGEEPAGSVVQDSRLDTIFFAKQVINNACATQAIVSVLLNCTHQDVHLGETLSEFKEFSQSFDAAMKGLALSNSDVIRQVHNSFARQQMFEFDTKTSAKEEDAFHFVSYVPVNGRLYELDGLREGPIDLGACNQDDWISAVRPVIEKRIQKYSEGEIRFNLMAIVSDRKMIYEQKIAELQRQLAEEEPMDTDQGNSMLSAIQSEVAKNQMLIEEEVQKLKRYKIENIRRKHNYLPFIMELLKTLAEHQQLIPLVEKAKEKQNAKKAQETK
#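 Material: Human UCH37 enzyme supplied as purified proteasome complex | Schedule: 30 min compound-proteasome preincubation then 25 min substrate reaction, room temperature | Detection: AMC fluorescence from Ub-AMC cleavage, excitation 355 nm, emission 460 nm | Benchmarks: Wells without proteasome as full block, compound-free enzyme plus substrate as uninhibited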
# E coli growth – E. coli growth inhibition; OD600 absorbance (no concentration beside the values); Escherichia coli growth, OD600, 23 h; stronger effect = lower value; AID 1053175; 0.21% of 330,000 active;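 active = OD600 absorbance below the run mean of sample wells minus 3.6 SD, in any replicate, cut at about 0.56 in these data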;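 note: stock transfer was 300 nL into about 60 µL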
# Ecoli rRNA inh OD600 – further read-out of Ecoli rRNA inh, marked with its call; OD600 change, %; measured here: OD600 growth;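 optical density of the mix in the first replicate; 0 = DMSO median and -100 = no signal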
# Ecoli rRNA inh RFP – recorded beside Ecoli rRNA inh, whose call it bears; RFP signal change, %; measured here: RFP humanized mutant strains;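 first replicate; 0 = DMSO median and -100 = no signal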
# * = called active by the depositor; i = inactive; / = not tested or not shown. Not all compounds are listed (hit frequency here may not be typical).
# Value order: HNF4A DNA FP	Ecoli rRNA inh OD600	FGF22 binding	Ecoli rRNA inh RFP	B2AR ag	ALR inh	Ecoli rRNA inh	UCH37 inh	E coli growth
COc1ccc(Br)cc1-c1noc(-c2ccccc2F)n1
  2.0	/	/	/	-6	2	/	0.8	0.77
CC1(C(=O)NCCC#N)CCN1C(=O)c1ccccc1CCc1ccccc1 (configuration not stated)
  4.0	-7	i	-0.5	/	/	-4	/	/
CCOC(=O)c1cccc(NC(=O)C2CCCN(S(=O)(=O)c3c(C)n[nH]c3C)C2)c1 (configuration not stated)
  -4.1	/	/	/	-2	-4	/	6.0	0.74
COc1ccc(C(=O)CCC(=O)O)c(C)c1
  -0.9	/	/	/	-10	-40	/	3.8	0.72
Cc1ccc(-n2c(C)cc(/C=C3/SC(=O)N(CC(=O)N4CCOCC4)C3=O)c2C)nc1
  /	/	/	/	/	-10	/	3.1	0.66
C[C@H](NC(=O)c1nc[nH]c1C(=O)N(C)Cc1ccccc1)C(=O)OC(C)(C)C
  2.0	-3	i	-9.2	-1	-6	3	3.3	/
O=C(COC(=O)C(CO)NS(=O)(=O)c1ccc(Br)cc1)Nc1ccc2c(c1)OCCO2 (configuration not stated)
  7.8	3	i	3.9	-8	/	2	3.8	0.68
Cc1ccc(OCC(=O)Nc2ccc(N3CCN(C(=O)c4ccco4)CC3)cc2)c(C)c1
  -1.6	-10	i	3.1	4	15	-4	5.1	0.62
O=C(CCCSc1nc2ccccc2[nH]1)Nc1nnc(C2CC2)s1
  5.7	-28	i	26	3	-8	-24	-0.2	0.68
COc1ccccc1N1CCN(S(=O)(=O)c2ccc(Cl)s2)CC1
  2.2	-19	i	2.5	-1	7	-17	4.1	0.66
O=C(Nc1nnc(C2CC2)s1)c1ccc(Cl)nc1
  1.9	-3	i	-1.7	-6	4	-3	8.1	0.64
CCOC(=O)N1CCC(NC(=O)c2ccc(CS(=O)(=O)c3ccc(OC)cc3)o2)CC1
  -0.9	-1	i	2.4	9	-1	4	4.7	0.72
CCCCn1c(N)c(N(CCOC)C(=O)CCN2C(=O)C3CC=CCC3C2=O)c(=O)[nH]c1=O (configuration not stated)
  5.8	13	i	-1.9	4	/	8	3.6	0.68
CN(C)CCCNC(=O)/C(=C/c1ccc(-c2ccc([N+](=O)[O-])cc2)o1)NC(=O)c1ccccc1
  2.1	3	i	8.0	-47	-10	2	5.3	0.63
COc1cccc(NC(=O)Nc2ccccc2SC)c1
  -2.9	-32	i	-2.0	-11	2	-13	3.6	0.65
COc1ccc(C2CC(=O)C(C=NCCN3CCN(C(=S)Nc4ccccc4)CC3)=C(O)C2)cc1 (configuration not stated)
  3.3	13	i	0.8	17	1	17	6.0	0.68
CC1CCCCC12NC(=O)N(CC(=O)Nc1cccnc1Cl)C2=O (configuration not stated)
  -2.1	0	i	2.7	0	-2	-1	/	/
COCCCNc1ncnc2sc3c(c12)CCC(C)C3 (configuration not stated)
  5.5	/	/	/	-7	14	/	5.0	0.72
Cc1cc(OC(C)C(N)=O)nc(-c2ccccc2)n1 (configuration not stated)
  -2.7	1	i	-2.0	3	-3	-3	4.5	0.69
OCCCn1c(C2CCCN2c2nc(-c3ccc(F)cc3)cs2)nc2cc(C(F)(F)F)ccc21 (configuration not stated)
  0.7	-1	i	-8.6	-11	-28	5	4.9	0.71
CCN(CCCC(=O)c1ccc(F)cc1)CCc1ccccc1
  3.9	5	i	0.1	-2	1	-5	4.1	0.67
O=C(CSc1nnc(Cc2ccc(Cl)cc2)o1)Nc1ccccc1
  1.7	3	i	-1.3	9	-7	-8	1.1	0.64
COc1cccc(C(c2sc3ncnn3c2O)N2CCc3ccccc3C2)c1 (configuration not stated)
  165	0	i	2.5	-5	/	-2	5.2	0.77
COc1ccc(OC)c(NC(=O)CSc2nnc(C)n2Cc2ccccc2)c1
  0.2	/	/	/	-5	-6	/	3.3	0.64
Cc1cc(C)nc(NS(=O)(=O)c2ccc(NC(=S)NC(=O)C(C)C)cc2)n1
  -1.1	/	/	/	15	2	/	-1.1	0.73
CCCc1cc(C(=O)Nc2ccc(Cl)cn2)cs1
  -0.8	-32	i	-7.4	16	5	3	4.2	0.65
Cc1ccccc1CN1CCN(C(=O)[C@H]2O[C@@H](n3ccc(=O)[nH]c3=O)[C@H](O)[C@@H]2O)CC1
  1.1	2	i	-2.8	/	/	2	/	/
CS(=O)(=O)N(CC(=O)N1CCOCC1)c1ccccc1
  0.8	5	i	-0.3	10	7	-2	-0.3	0.72
CCN(c1ccccc1)S(=O)(=O)c1nnc(NC(=O)C(C)C)s1
  2.0	11	i	1.4	1	-3	11	-2.2	0.68
CC(C)Oc1ccc(C2CC(=O)N(c3cccc(C(=O)O)c3)C2=O)cc1 (configuration not stated)
  -4.9	/	/	/	20	-3	/	0.9	0.68
CCc1ccc(N(CC(=O)NC)S(C)(=O)=O)cc1
  -0.9	/	/	/	0	-22	/	3.2	0.69
COc1ccccc1/C=C/c1nc2ccccc2c(=O)o1
  -1.1	-42	i	-7.6	4	/	-19	/	/
Cc1ccc2ncnc(Nc3ccc(C)c(C)c3)c2c1
  -4.7	-19*	i	-6.5*	3	-13	-27*	-27	0.69
Cc1ccc(-n2nc(C(=O)N3CCOCC3)cc2-c2ccc(Cl)cc2)cc1
  0.5	/	/	/	-4	-1	/	0.2	0.79
CCOCCn1c(N2CCN(c3ccccc3)CC2)nc2c1c(=O)n(C)c(=O)n2C
  0.2	/	/	/	-3	/	/	4.5	0.7
CCOP(=O)(OCC)C(Nc1cccc(C(F)(F)F)c1)c1ccc(Br)cc1 (configuration not stated)
  /	-23	i	-7.8	/	/	-8	5.1	0.69
C=COCCNC(=O)C(=O)NC(C)C
  3.7	/	/	/	-10	-22	/	/	/
COc1ccccc1O
  0.5	0	i	3.5	0	-23	5	-4.2	0.67
O=C(Nc1ccc(Br)cc1Br)Nc1cccc2[nH]c([C@@H]3O[C@H](CO)[C@@H](O)[C@H](O)[C@H]3O)nc12
  -6.4	0	i	7.4	/	/	10	/	/
CCOC(=O)N1CCN(C(=O)c2cnc(Nc3ccccc3OC)c3ccccc23)CC1
  -2.5	/	/	/	-5	-17	/	-7.3	0.66
COC(=O)c1nc2cc(C)ccn2c1F
  3.2	14	i	2.2	6	-2	5	-4.3	0.69
CCOC(=O)c1nonc1NC(C)=O
  3.6	/	/	/	4	/	/	2.9	0.68
O=C(NCCS(=O)(=O)N1CCN(c2ccccc2F)CC1)c1cccc(Br)c1
  -0.2	-11	i	-0.9	-2	0	-9	0.6	0.69
COc1ccccc1NC(=S)NC1CCCC1
  1.7	8	i	-0.4	-1	/	13	6.3	0.66
Cc1cc(=O)[nH]c(SCc2cc(Cl)ccc2OC(F)F)n1
  3.2	/	/	/	-1	-17	/	1.4	0.71
COC(=O)c1ccc(N2C(c3cc(OC)cc(OC)c3)=Cc3ccc(-c4ccc(C(N)=O)cc4)cc3C2CC(=O)C2CC2)cc1 (configuration not stated)
  6.1	15	i	-1.0	/	/	-7	/	/
CCCCOCCCNC(=O)/C=C/c1ccccc1Cl
  1.3	/	/	/	-6	-2	/	3.4	0.7
FC(F)(F)c1cccc(N2CCN(Cc3cccnc3)CC2)c1
  2.1	/	/	/	-5	13	/	0.4	0.67
CCCCn1nnnc1-c1nc2ccccc2[nH]c1=O
  -0.4	7	i	3.8	/	/	11	/	/
COc1cc(S(=O)(=O)N2CCN(C)CC2)c(OC)cc1Br
  -1.9	/	/	/	4	-1	/	5.1	0.78

# (listing goes on)
# Value order: HNF4A DNA FP	Ecoli rRNA inh OD600	FGF22 binding	Ecoli rRNA inh RFP	B2AR ag	ALR inh	Ecoli rRNA inh	UCH37 inh	E coli growth
CCC1CCC(N2CCN(c3ccc(F)cc3)CC2)CC1 (configuration not stated)
  -0.1	5	i	2.4	3	45	14	-1.1	0.69
COc1ccccc1NS(=O)(=O)c1ccc(C(=O)N2CC(C)OC(C)C2)cc1 (configuration not stated)
  2.1	/	i	/	-1	-2	/	1.6	0.66
COc1cccc(N=CC2=C(O)CCCC2=O)c1
  2.5	8	i	2.9	-1	-4	23	11	0.67
O=CN1CC(=O)N(c2ccccc2)c2c([nH]c3ccccc23)C1
  -1.6	/	/	/	-15	-9	/	4.2	0.68
COC(=O)[C@]12CCCCC=C1N(Cc1ccccc1)C(=O)[C@H](CC(=O)NCc1ccccc1)C2
  6.0	-46	i	-7.2	/	/	-28	/	/
Cc1noc(C)c1C(=O)Nc1nnc(-c2ccccc2)s1
  0.1	/	/	/	-2	/	/	1.9	0.7
Cc1ccc(CCN2CC(C(=O)NCCCN3CCOCC3)CC2=O)cc1 (configuration not stated)
  -0.4	/	/	/	-2	-1	/	0.7	0.7
CN(C)c1ccc(/C=N/N(CCO)C2=NS(=O)(=O)c3ccccc32)cc1
  131	6	i	6.8	0	-14	19	/	/
Cc1ccc(C(=O)Nc2cc3ccccc3oc2=O)cc1
  -1.8	24	i	3.1	-10	1	33	-249	0.74
O=C(CCN=C1NS(=O)(=O)c2ccccc21)OCc1c(F)c(F)c(F)c(F)c1F
  0.4	13	i	2.1	-5	/	7	-1.2	0.67
O=C(/C=C/c1ccccc1)Oc1cccc2cccnc12
  0.4	-15	i	0.7	1	15	-17	3.9	0.67
O=C(Nn1cnc2ccccc2c1=O)c1cccc(Cl)c1
  3.4	4	i	0.6	5	45	5	-0.8	0.69
Cc1sc2ncnc(N3CCN(C(=O)c4ccco4)CC3)c2c1C
  -3.5	-31	/	-5.0	-5	-5	-32	3.6	0.69
COc1ccccc1C(=O)O/N=C(\N)c1ccccn1
  -5.1	5	i	2.1	5	-1	9	0.8	0.62
Cc1ccccc1-n1c(C)nnc1SCC(=O)N(C)C1CCS(=O)(=O)C1 (configuration not stated)
  -0.2	12	i	-0.8	0	-6	15	3.0	0.7
CC(C)(C)N1C(=O)[C@H]2[C@@H](c3ccc(Br)cc3)N3C(=O)N(c4ccccc4)C(=O)[C@@]3(C)[C@H]2C1=O
  0.0	-1	i	3.1	-2	/	-13	3.9	/
CCOc1ccc(N2CC(C(=O)N3CCCC3)CC2=O)cc1 (configuration not stated)
  1.5	9	i	-0.3	-2	10	3	1.5	0.71
O=C(Cn1nnc(-c2ccccc2F)n1)NCc1ccco1
  -4.5	0	i	2.9	-10	1	2	2.9	0.72
CNC(=O)c1[nH]nc2c1CCc1ccccc1-2
  2.0	-13	i	-0.7	0	-22	4	4.3	0.64
CCN(c1ccc(OC)cc1)S(=O)(=O)N1CCCC(C(=O)NCc2cccc(C)c2)C1 (configuration not stated)
  -2.4	-7	i	2.4	-4	-17	-3	0.4	0.75
C=CC(=O)NCCCc1cc(C(C)(C)C)c(O)c(C(C)(C)C)c1
  -0.2	-57	i	2.0	-4	11	-33	0.9	0.68
Cc1cc(C)n(C(C[N+](=O)[O-])c2ccc(Cl)cc2)n1 (configuration not stated)
  0.7	/	/	/	12	-35	/	/	/
C[C@H](NC(=O)N1CCn2c1nc1ccccc12)C(=O)NC1CCCCC1
  1.4	9	i	4.7	-10	-5	6	2.4	0.73
O=C(COc1ccccc1Cl)Nc1ccc(N2CCCC2)cc1
  2.1	15	i	-0.1	-6	-13	2	-3.4	0.7
O=C1C(C=Nc2ccccc2O)=C(O)c2ccccc21
  -0.1	-5	i	-1.8	1	5	11	5.6	0.71
